A1 inhib: blocks A1 activity. AID 2241. 0.51% of 21,000 active. caspase activation, % (no concentration beside the values). MEF A1-2A-BIM cells, caspase-Glo luminescence, 3 h; percent of clofoctol signal, DMSO as zero;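 active = most replicate scores above 10, or exactly half above 10 with mean activity above 10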;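 note: effector caspase 3 and 7 activity cleaving a DEVD luciferin substrate; 50 nL library stock added to about 30 µL; numbers are from one replicate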
BJeLR viab HTS: lowers viability of BJeLR cells; BJeLR fibroblasts viability, CellTiterGlo ATP luminescence, 48 h; HRASV12, hTERT and SV40 LT/ST transformed; viability loss activity score, % (no concentration beside the values); 0.64% of 30,000 active; AID 2275; in the data active = viability loss activity score above about 50%; about a fifth of its hits are not listed in these tables;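 note: higher score means fewer live cells and less ATP luminescence; stock transfer was 50 or 100 nL into about 30 µL; 0% = vehicle wells and 100% = a reference killing control; one replicate is shown; the record names a cut of 85%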
* = called active by the depositor; x = not tested or not shown. These rows are one share of the data. The share of hits here may be higher or lower than overall.

SMILES	A1 inhib	BJeLR viab HTS
CNC[C@H]1Oc2c(NS(=O)(=O)c3ccccc3)cccc2C(=O)N([C@@H](C)CO)C[C@H]1C	x	3.3
Cc1noc(C)c1NC(=O)N(C)C[C@H]1Oc2c(NC(=O)c3ccc(-c4nccs4)cc3)cccc2C(=O)N([C@@H](C)CO)C[C@H]1C	x	-5.5
CN1C(=O)c2ccccc2Sc2ccc(C(=O)O)cc21	0.2	-1.8
C[C@@H]1CN([C@H](C)CO)C(=O)c2cc(NS(C)(=O)=O)ccc2O[C@H]1CN(C)Cc1ccc(C(=O)O)cc1	1.5	-1.4
CC(C)CCNC(=O)c1ccc(CS(=O)(=O)c2ccc(Br)cc2)o1	x	4.0
C[C@H]1CN([C@@H](C)CO)C(=O)c2cc(NC(=O)CCCCCC(=O)Nc3ccccc3N)ccc2O[C@H]1CN(C)Cc1ccc2c(c1)OCO2	x	-2.2
Clc1ccc(OCCSc2ncnc3ccccc23)cc1	-0.5	3.0
N#Cc1cc(C#N)c(SCC(=O)NC2CCCCC2)nc1N	0.3	2.5
C[C@H](CO)N1C[C@H](C)[C@H](CN(C)Cc2ccc(Oc3ccccc3)cc2)Oc2ccc(NC(=O)c3ccncc3)cc2C1=O	0.5	-5.1
C[C@@H]1CN([C@H](C)CO)C(=O)c2cc(N(C)C)ccc2O[C@@H]1CN(C)Cc1ccc(-c2ccccc2)cc1	0.2	-0.4
O=C(Nc1ccccc1)N1CCn2c(nc3ccccc32)C1	x	1.1
CC(C)n1c(=S)[nH]c2ccccc2c1=O	-0.7	0.6
CC(C)NC(=O)Nc1ccc2c(c1)C(=O)N([C@@H](C)CO)C[C@H](C)[C@@H](CN(C)C(=O)Nc1ccc3c(c1)OCO3)O2	-0.4	1.5
O=C(Nc1nccs1)C12CC3CC(C1)CC(C(=O)Nc1nccs1)(C3)C2	1.3	-5.7
CN(C)CCNc1cn[nH]c(=O)c1Cl	0.0	1.5
COc1ccc(S(=O)(=O)N(C)C[C@H]2Oc3c(NC(=O)C4CC4)cccc3C(=O)N([C@H](C)CO)C[C@H]2C)cc1	x	-8.2
C[C@@H]1CN([C@H](C)CO)C(=O)c2cc(NS(=O)(=O)c3cccs3)ccc2O[C@@H]1CN(C)Cc1ccncc1	-0.4	-0.7
COc1ccc2ncnc(NCc3ccc4c(c3)OCO4)c2c1	-1.1	13.1
Cc1ccc(C(=O)Oc2c(C)cc(-c3nn(C)c(=O)c4ccccc34)cc2C)cc1	-0.9	2.5
Cc1cccn2c(=O)c3cc(C(=O)NCC4CCCO4)c(=N)n(C4CCCCC4)c3nc12 (centres undefined)	-1.5	2.4
COc1cccc(NC(=O)c2cn(C3CCCC3)c(=O)c3c2c2ccccc2n3C)c1	x	-4.3
COC(=O)CSCc1n[nH]c(=O)c2ccccc12	0.4	-0.5
Cc1c(N=C2c3ccccc3-c3ccccc32)c(=O)n(-c2ccccc2)n1C	1.3	-0.8
C[C@H](CO)N1C[C@H](C)[C@H](CN(C)S(=O)(=O)c2ccc(F)cc2)Oc2c(NC(=O)Nc3cccc4ccccc34)cccc2C1=O	x	-1.1
C[C@H](CO)N1C[C@H](C)[C@H](CN(C)CC2CCCCC2)Oc2c(NS(=O)(=O)c3ccccc3)cccc2C1=O	x	4.5
C[C@@H]1CN([C@@H](C)CO)C(=O)c2cc(NC(=O)C3CCCCC3)ccc2O[C@@H]1CN(C)C(=O)Nc1cccc2ccccc12	0.3	-1.5
Cc1noc(C)c1NC(=O)N(C)C[C@@H]1Oc2c(NC(=O)NC(C)C)cccc2C(=O)N([C@@H](C)CO)C[C@@H]1C	x	1.9
CCn1c(C(=O)N2CCC(C(=O)NCc3ccc(Cl)cc3)CC2)cc2occc21	0.2	4.7
C[C@@H]1CN([C@@H](C)CO)C(=O)c2cc(NS(=O)(=O)c3ccc(F)cc3)ccc2O[C@H]1CN(C)S(C)(=O)=O	0.6	-5.6
Cc1ccc2sc(-c3ccc(N4C(=O)C5CC=CCC5C4=O)cc3)nc2c1 (centres undefined)	-0.6	1.2
Cc1ccc(S(=O)(=O)c2no[n+]([O-])c2S(=O)(=O)c2ccc(C)cc2)cc1	-3.6	62.0*
COc1ccc(NC(=O)CCn2c(=O)[nH]c3ccccc3c2=O)cc1OC	0.1	-0.5
CC12CCC(CC(=O)c3ccccc3)(CC1)CC2	-0.6	1.3
COc1ccc(S(=O)(=O)Nc2cccc3c2O[C@@H](CN(C)S(=O)(=O)c2ccc(OC)cc2)[C@@H](C)CN([C@H](C)CO)C3=O)cc1	x	2.1
C[C@@H]1CN([C@@H](C)CO)C(=O)c2cccc(NC(=O)c3nc4ccccc4s3)c2O[C@H]1CN(C)S(=O)(=O)c1ccc(F)cc1	x	-6.1
C[C@H](CO)N1C[C@H](C)[C@@H](CN(C)C(=O)Nc2ccccc2)Oc2c(NC(=O)NC3CCCCC3)cccc2C1=O	x	-1.8
COc1ccc(S(=O)(=O)N(C)C[C@@H]2Oc3c(NC(=O)Nc4ccc(F)cc4)cccc3C(=O)N([C@@H](C)CO)C[C@H]2C)cc1	x	-2.5
O=C(NC1CCCC1)c1ccc(COc2cc(Cl)ccc2Cl)o1	-0.1	-2.1
COc1cc(OC)cc(C(=O)Nc2cccc3nsnc23)c1	-1.5	1.2
COc1ccc(CCNC(=O)CCn2c(SCC#N)nc3ccccc3c2=O)cc1OC	-0.9	-5.2
O=c1c(OC2OC(CO)C(O)C(O)C2OC2OC(CO)C(O)C(O)C2OC2OC(CO)C(O)C(O)C2O)c(-c2ccc(O)c(O)c2)oc2cc(O)cc(O)c12 (centres undefined)	0.7	-0.2
Cc1noc(C)c1NC(=O)N(C)C[C@H]1Oc2c(NC(=O)C3CCOCC3)cccc2C(=O)N([C@@H](C)CO)C[C@H]1C	x	0.8
COc1ccc(CN(C)C[C@H]2Oc3c(NC(=O)C4CC4)cccc3C(=O)N([C@@H](C)CO)C[C@@H]2C)cc1	x	8.6
O=C(Nc1ccc(N2CCCCC2)cc1)c1ccncc1	-5.6	11.1
C[C@H]1CN([C@@H](C)CO)C(=O)c2cccc(NC(=O)C3CCOCC3)c2O[C@H]1CN(C)Cc1ccccc1	x	5.8
Cc1cccc(CCNC(=O)[C@H](Cc2ccccc2)N2Cc3ccccc3C2=O)c1	x	1.3
C/C(=C\CC(C)(C)/C=C/Cc1ccoc1)C(=O)O	-0.9	-3.9
C[C@H](CO)N1C[C@H](C)[C@@H](CN(C)C(=O)Nc2ccc(C(F)(F)F)cc2)Oc2ccc(NC(=O)C3CCCCC3)cc2C1=O	-0.3	2.2
C[C@@H]1CN([C@@H](C)CO)C(=O)c2cc(NC(=O)Cc3ccccc3)ccc2O[C@@H]1CN(C)S(=O)(=O)c1ccc(F)cc1	-0.1	-0.1
C[C@@H]1CN([C@@H](C)CO)C(=O)c2cccc(NS(C)(=O)=O)c2O[C@H]1CN(C)Cc1ccc(Oc2ccccc2)cc1	x	1.1
Cc1ccc(S(=O)(=O)Nc2ccc3c(c2)C(=O)N([C@H](C)CO)C[C@H](C)[C@H](CN(C)S(C)(=O)=O)O3)cc1	-0.3	1.0
C[C@H](CO)N1C[C@H](C)[C@@H](CN(C)Cc2ccc(Cl)c(Cl)c2)Oc2c(NC(=O)Nc3cccc4ccccc34)cccc2C1=O	x	4.5
CC1=CC(C)(C)N(C(=O)/C=C/c2ccccc2)c2ccc(C)cc21	0.0	-3.9
C[C@@H]1CN([C@H](C)CO)C(=O)c2cccc(NC(=O)Nc3ccc(F)cc3)c2O[C@@H]1CN(C)C(=O)NC1CCCCC1	x	0.2
CCc1nnc(NC(=O)Nc2ccccc2C(F)(F)F)s1	x	-1.8
CC(=O)N[C@@H](Cc1c[nH]c2ccccc12)C(N)=O	-0.1	2.9
Cn1c(-c2ccccc2)c[nH]c1=S	0.3	5.3
C[C@@H]1CN([C@@H](C)CO)C(=O)c2cccc(NC(=O)c3nc4ccccc4s3)c2O[C@H]1CN(C)C(=O)Nc1ccccc1	x	-0.2
Cc1ccc(S(=O)(=O)Nc2cccc3c2O[C@@H](CN(C)S(=O)(=O)c2cn(C)cn2)[C@@H](C)CN([C@H](C)CO)C3=O)cc1	x	4.4
COc1ccc(NC(=O)N(C)C[C@H]2Oc3c(NC(=O)Nc4ccc5c(c4)OCO5)cccc3C(=O)N([C@H](C)CO)C[C@@H]2C)cc1	x	-0.3
(listing goes on)
SMILES	A1 inhib	BJeLR viab HTS
C[C@H](CO)N1C[C@H](C)[C@@H](CN(C)C(=O)Nc2ccc(C(F)(F)F)cc2)Oc2c(NS(=O)(=O)c3ccccc3)cccc2C1=O	x	-3.2
C[C@H](CO)N1C[C@H](C)[C@@H](CN(C)S(=O)(=O)c2ccc(Cl)cc2)Oc2c(NS(=O)(=O)c3ccccc3)cccc2C1=O	x	1.0
C[C@H]1CN([C@@H](C)CO)C(=O)c2cccc(NC(=O)Nc3ccc(F)cc3)c2O[C@H]1CN(C)Cc1ccc(C(F)(F)F)cc1	x	-1.0
Cc1noc(C)c1S(=O)(=O)Nc1ccc2c(c1)C(=O)N([C@H](C)CO)C[C@H](C)[C@H](CN(C)Cc1ccc(Oc3ccccc3)cc1)O2	-0.7	-1.3
Cc1ccc(S(=O)(=O)N(C)C[C@@H]2Oc3c(NC(=O)Nc4ccc5c(c4)OCO5)cccc3C(=O)N([C@@H](C)CO)C[C@H]2C)cc1	x	2.3
C[C@@H]1CN([C@H](C)CO)C(=O)c2cc(NS(=O)(=O)c3ccc(F)cc3)ccc2O[C@H]1CN(C)S(=O)(=O)c1cn(C)cn1	-0.1	-0.6
C[C@H](CO)N1C[C@H](C)[C@H](CN(C)Cc2ccc(C(=O)O)cc2)Oc2c(NC(=O)c3ccncc3)cccc2C1=O	x	1.7
COc1ccc(NC(=O)Nc2cccc3c2O[C@H](CN(C)S(=O)(=O)c2ccccc2)[C@@H](C)CN([C@H](C)CO)C3=O)cc1	x	-2.4
C[C@H]1CN([C@@H](C)CO)C(=O)c2cccc(NS(=O)(=O)c3cn(C)cn3)c2O[C@@H]1CN(C)Cc1ccc(Cl)c(Cl)c1	x	-5.3
C[C@H]1CN([C@@H](C)CO)C(=O)c2cccc(NC(=O)Nc3ccc4c(c3)OCO4)c2O[C@@H]1CN(C)C	x	2.3
COc1c2occc2c(OC)c2c(=O)cc(C)oc12	0.1	12.0
C[C@H](CO)N1C[C@H](C)[C@H](CN(C)S(C)(=O)=O)Oc2ccc(NC(=O)CCN3CCOCC3)cc2C1=O	0.7	2.2
N#CC(=S)Nc1ccc(F)cc1	-3.7	11.2
Cc1ccc(S(=O)(=O)Nc2cccc3c2O[C@@H](CN(C)C(=O)NC2CCCCC2)[C@@H](C)CN([C@H](C)CO)C3=O)cc1	x	1.2
NNC(=O)Cc1csc(-c2cccc(-n3cccc3)c2)n1	0.3	-0.7
CCOC(=O)N1CCN(Cc2nnc(-c3ccc4c(c3)OCO4)o2)CC1	x	3.5
CCc1nc(C)ccc1OCC(=O)N(CC)CC	0.2	-4.3
S=C(NCCc1ccc(Cl)cc1)Nc1ccccc1	-0.4	-9.0
CC(C)n1cc(-c2nc(C(C)(C)C)cs2)c(=O)n(Cc2ccccc2)c1=O	0.4	18.3
CC1CCCN(Cc2nc3c(c(=O)n(C)c(=O)n3C)n2CCc2ccccc2)C1 (centres undefined)	x	-0.8

Profiles from above. Order of values: A1 inhib, BJeLR viab HTS
Entry for Cc1ccc(S(=O)(=O)Nc2cccc3c2O[C@@H](CN(C)C(=O)NC2CCCCC2)[C@@H](C)CN([C@H](C)CO)C3=O)cc1 → x, 1.2
Entry for C[C@H]1CN([C@@H](C)CO)C(=O)c2cccc(NC(=O)Nc3ccc(F)cc3)c2O[C@H]1CN(C)Cc1ccc(C(F)(F)F)cc1 → x, -1.0

Six structures out of the list, arranged by length of the SMILES, lowest first:
SMILES	A1 inhib	BJeLR viab HTS
COc1c2occc2c(OC)c2c(=O)cc(C)oc12	0.1	12.0
C[C@H](CO)N1C[C@H](C)[C@H](CN(C)Cc2ccc(C(=O)O)cc2)Oc2c(NC(=O)c3ccncc3)cccc2C1=O	x	1.7
C[C@H]1CN([C@@H](C)CO)C(=O)c2cccc(NC(=O)Nc3ccc(F)cc3)c2O[C@H]1CN(C)Cc1ccc(C(F)(F)F)cc1	x	-1.0
C[C@H](CO)N1C[C@H](C)[C@@H](CN(C)S(=O)(=O)c2ccc(Cl)cc2)Oc2c(NS(=O)(=O)c3ccccc3)cccc2C1=O	x	1.0
Cc1ccc(S(=O)(=O)N(C)C[C@@H]2Oc3c(NC(=O)Nc4ccc5c(c4)OCO5)cccc3C(=O)N([C@@H](C)CO)C[C@H]2C)cc1	x	2.3
Cc1noc(C)c1S(=O)(=O)Nc1ccc2c(c1)C(=O)N([C@H](C)CO)C[C@H](C)[C@H](CN(C)Cc1ccc(Oc3ccccc3)cc1)O2	-0.7	-1.3

Further entries follow.
SMILES	A1 inhib	BJeLR viab HTS
Cc1noc(C)c1NC(=O)N(C)C[C@H]1Oc2ccc(NS(=O)(=O)c3ccc(Cl)cc3)cc2C(=O)N([C@H](C)CO)C[C@H]1C	0.4	-2.5
CCCNS(=O)(=O)c1nc2nc(C)cc(C)n2n1	0.0	-7.6
COc1ccc(CSc2nnc(SCc3ccc(C(=O)O)cc3)s2)cc1	0.6	4.3
O=S(=O)(/N=c1\cc(-c2ccccc2)ss1)c1ccccc1	0.4	-5.0
C[C@H]1CN([C@@H](C)CO)C(=O)c2cc(NC(=O)Nc3ccccc3)ccc2O[C@@H]1CN(C)C(=O)NC1CCCCC1	0.5	-1.3
Cc1ccc(S(=O)(=O)N(C)C[C@H]2Oc3ccc(NS(=O)(=O)c4ccccc4)cc3C(=O)N([C@H](C)CO)C[C@H]2C)cc1	0.5	5.8
C[C@@H]1CN([C@H](C)CO)C(=O)c2cccc(NS(=O)(=O)c3ccccc3)c2O[C@@H]1CN(C)Cc1ccc(Cl)c(Cl)c1	x	-4.5
Clc1ccc2c(c1)c(-c1ccccc1)nc1nncn12	x	-0.6
CCC(C)(CC(=O)O)CC(=O)Nc1cc(C(F)(F)F)cc(C(F)(F)F)c1 (centres undefined)	0.2	-0.3
O=C(Cc1ccccc1)c1ccc(Br)cc1	-2.0	-0.9
